Screening data from PubChem BioAssay.
DUX4 inh: inhibitors of DUX4-driven ZSCAN4 reporter expression, primary screen, 293T cells, Gaussia and Italica luciferase. activity change, negative = inhibition, % (no concentration beside the values). actives 0.8% (n = 37,000). 293T-iDUX4 ZSCAN4-Gaussia luciferase reporter, 24 h; active compounds read low;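 active = -10% or lower and over 25 points stronger than a control reporter; inconclusive = -10% or lower with a smaller gap; inactive = above -10%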;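 also: 0% = median of neutral control wells and -100% = median of positive control wells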
DUX4 inh difference: second read-out of DUX4 inh, no call of its own (marks repeat the call); Gaussia minus Italica difference, %; measured here: selective DUX4 reporter inhibition;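 worked out from the two reporters; negative = selective loss of the DUX4 reporter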
DUX4 inh control: second read-out of DUX4 inh, no call of its own (marks repeat the call); activity change, negative = inhibition, %; measured here: Italica tet-on control reporter;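 0 = neutral control and -100 = positive control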
* = called active by the depositor; ? = inconclusive; . = not tested or not shown. Only part of the results is shown. The share of hits here may be higher or lower than overall.

SMILES	DUX4 inh	DUX4 inh difference	DUX4 inh control
O=C(C[C@H]1CC[C@@H]2[C@H](COC[C@H](O)CN2CCC(F)(F)F)O1)NCc1ccc2c(c1)OCO2	10	2	7.8
C[C@H]1CN([C@@H](C)CO)C(=O)c2ccccc2-c2ccccc2CO[C@H]1CN(C)C(=O)Nc1ccc(-c2ccccc2)cc1	0	8	-8.0
O=C(C[C@H]1CC[C@H]2[C@@H](COC[C@@H](O)CN2C(=O)c2cnccn2)O1)NCc1ccc(Cl)cc1	4	-3	7.4
COCC(=O)N1CC2(CCN(Cc3ccccc3)CC2)c2c(n(C)c3cc(OC)ccc23)[C@H]1CO	?	.	.
O=C(C[C@@H]1C[C@H]2c3cc(NC(=O)c4cccnc4)ccc3O[C@H]2[C@@H](CO)O1)NCc1ccc(Oc2ccccc2)cc1	2	-12	14
CCCNC(=O)C[C@H]1CC[C@@H]2[C@H](COC[C@@H](O)CN2Cc2cccc(F)c2)O1	0	1	-1.1
COCCNC(=O)C[C@@H]1C[C@H]2c3cc(NC(=O)NC4CCCC4)ccc3O[C@H]2[C@@H](CO)O1	-6	-6	0.5
O=C(c1ccccc1)N1CC[C@H]2[C@H](CO)Nc3ccc(C#Cc4cccc(F)c4)cc3[C@H]21	1	-9	10
CCC(=O)N1CC(=O)N2[C@@H](CO)[C@H](c3ccc(-c4ccc(C#N)cc4)cc3)[C@@H]2C1	3	-4	7.3
O=S(=O)(c1cccs1)N1CCCCN2[C@H](C1)[C@H](c1ccc(Br)cc1)[C@@H]2CO	-7	-8	0.3
Cc1ccc(S(=O)(=O)Nc2ccc3c(c2)C(=O)N([C@H](C)CO)C[C@@H](C)[C@H](CN(C)S(C)(=O)=O)O3)cc1	6	3	3.1
C[C@H]1CN([C@@H](C)CO)C(=O)Cc2cc(NS(=O)(=O)c3cccs3)ccc2O[C@@H]1CN(C)Cc1ccc(-c2ccccc2)cc1	0	0	0.3
CCNC(=O)C[C@@H]1CC[C@@H]2[C@H](COc3ccc(NC(C)=O)cc3C(=O)N2C)O1	0	-1	0.3
C[C@@H]1CN([C@@H](C)CO)C(=O)CCCn2nncc2CO[C@@H]1CN(C)S(=O)(=O)c1ccc2c(c1)OCCCO2	1	1	-1.0
OC[C@@H]1[C@H](c2ccc(C#CC3(O)CCCC3)cc2)[C@@H]2CN(Cc3ccncc3)CCCCN12	10	9	1.4
O=C(C[C@@H]1CC[C@@H]2[C@H](COC[C@H](O)CN2S(=O)(=O)c2ccc(F)cc2)O1)N[C@H]1CCN(Cc2ccccc2)C1	6	1	5.6
COCC(=O)N1CC(=O)N2[C@H](CO)[C@H](c3ccc(C#CC4CC4)cc3)[C@@H]2C1	5	3	1.9
CN(C)CC(=O)Nc1ccc2c(c1)[C@@H]1C[C@@H](CC(=O)N3CCCCC3)O[C@@H](CO)[C@@H]1O2	0	-1	0.5
CC(C)N(C[C@H]1N[C@H](CO)[C@@H]1c1ccccc1)C(=O)CN1CCOCC1	-3	-4	0.6
COc1ccccc1NC(=O)N[C@@H]1C=C[C@H](CC(=O)N[C@H](C)c2ccccc2)O[C@H]1CO	5	8	-3.0
Cn1cnc(S(=O)(=O)N[C@@H]2CC[C@@H](CC(=O)NCC3CCCCC3)O[C@@H]2CO)c1	1	-2	3.0
C[C@@H]1CN([C@H](C)CO)C(=O)CCCn2nncc2CO[C@@H]1CN(C)CC1CCCCC1	6	6	-0.5
CC=Cc1ccc2n(c1=O)C[C@@H]1[C@@H](CO)[C@H](C(=O)N[C@@H](C)c3ccccc3)[C@H]2N1CC1CC1 (mixture of isomers)	-4	-5	1.1
O=C(Nc1ccc2c(c1)[C@@H]1C[C@@H](CC(=O)N3CCc4ccccc4C3)O[C@@H](CO)[C@@H]1O2)c1ccc2c(c1)OCO2	?	.	.
COc1ccc2c3c([nH]c2c1)[C@H](CO)N(S(C)(=O)=O)CC31CCN(C(=O)c2ccncc2)CC1	21	4	17
O=C(c1cnccn1)N1CC(=O)N2[C@H](CO)[C@@H](c3ccc(C#CCc4ccccc4)cc3)[C@H]2C1	-8	-6	-2.3
C[C@H](CO)N1C[C@H](C)[C@H](CN(C)Cc2ccccc2C(=O)O)Oc2cc(-c3ccc(F)cc3)ccc2S1(=O)=O	0	0	0.6
CO[C@@H](CN(C)S(=O)(=O)c1ccc(Cl)cc1)[C@@H](C)CN(C(=O)Nc1ccccc1F)[C@H](C)CO	5	2	3.0
C/C=C/c1ccc([C@@H]2[C@H](CO)N(C(=O)c3cnccn3)C23CN(C(=O)C2CCC2)C3)cc1	-2	-2	-0.4
CC(C)c1cn(CC[C@H]2CC[C@@H](NC(=O)Nc3cc(Cl)cc(Cl)c3)[C@@H](CO)O2)nn1	-4	2	-5.9
COc1ccc(-c2ccc3n(c2=O)C[C@H]2[C@H](CO)[C@@H](C(=O)Nc4ccccc4)N(C)[C@@H]32)cc1	1	0	0.9
O=C(C1CCOCC1)N1CC(=O)N2[C@H](CO)[C@@H](c3ccc(-c4cccnc4)cc3)[C@H]2C1	12	5	6.6
CO[C@@H]1CN(C)C(=O)c2ccc(NS(=O)(=O)CC(F)(F)F)cc2OC[C@@H](C)N(C(=O)c2ccc3c(c2)OCO3)C[C@@H]1C	1	2	-0.6
CNC(=O)C[C@@H]1CC[C@@H]2[C@H](COc3ccc(NC(=O)c4ccccc4OC)cc3C(=O)N2C)O1	1	1	0.6
C[C@H]1CN([C@@H](C)CO)S(=O)(=O)c2ccc(C#Cc3ccccc3)cc2O[C@@H]1CN(C)C	-1	0	-1.0
C[C@H](CO)N1C[C@H](C)[C@H](CN(C)Cc2ccc(Cl)c(Cl)c2)Oc2ccc(NC(=O)CCCN(C)C)cc2C1=O	2	2	-0.3
CNC[C@H]1Oc2c(NC(=O)Nc3c(C)noc3C)cccc2C(=O)N([C@@H](C)CO)C[C@H]1C	1	-3	4.2
Cc1ccc(S(=O)(=O)N[C@H]2CC[C@@H](CCn3cc(C4(O)CCCC4)nn3)O[C@H]2CO)cc1	0	3	-3.4
Cc1cccc(S(=O)(=O)N2C[C@H]3[C@@H](c4ccccc42)[C@H](CO)N3C(=O)c2ccccc2)c1	3	3	-0.5
COCC(=O)Nc1ccc2c(c1)C(=O)N(C)[C@H]1CC[C@@H](CC(=O)Nc3cn(C)nc3C)O[C@H]1CO2	-7	-7	0.5
C[C@H]1CN([C@@H](C)CO)C(=O)c2ccccc2-c2ccccc2CO[C@@H]1CN(C)C(=O)c1cc(Cl)cc(Cl)c1	6	9	-2.6
Cc1noc(C)c1S(=O)(=O)N(C)C[C@@H]1OCCCC[C@H](C)Oc2ccc(N(C)C)cc2C(=O)N([C@@H](C)CO)C[C@H]1C	0	2	-1.9
O=C(NCC1CC1)[C@H]1N[C@H]2c3ccc(-c4ccccc4F)c(=O)n3C[C@H]2[C@@H]1CO	?	.	.
CCNC(=O)C[C@H]1CC[C@H]2[C@@H](COc3ccc(NC(C)=O)cc3C(=O)N2C)O1	1	2	-1.1
CCCNC(=O)C[C@@H]1CC[C@@H]2[C@H](COC[C@@H](O)CN2Cc2ccc(Cl)c(Cl)c2)O1	?	.	.
C[C@H]1CN([C@@H](C)CO)C(=O)c2c(c3ccccc3n2C)-c2ccccc2CO[C@H]1CN(C)S(=O)(=O)c1cccs1	3	3	0.0
CCN(C[C@H]1N[C@H](CO)[C@H]1c1ccc(-c2cccc(F)c2)cc1)C(=O)COC	2	-3	4.6
C[C@H](CO)N1C[C@H](C)[C@H](CN(C)C(=O)Nc2ccc(C(F)(F)F)cc2)Oc2ccc(NC(=O)CCCCCC(=O)Nc3ccccc3N)cc2C1=O	-4	0	-4.2
O=C(NCCCN1CCOCC1)[C@@H]1[C@@H](CO)[C@@H]2Cn3c(ccc(C4=CCCC4)c3=O)[C@H]1N2	-8	-2	-6.3
CCS(=O)(=O)N1CCC2(CC1)CN(S(=O)(=O)c1cn(C)cn1)[C@H](CO)c1[nH]c3cc(OC)ccc3c12	12	7	5.0

Next results follow:
SMILES	DUX4 inh	DUX4 inh difference	DUX4 inh control
CN1C(=O)c2cc(NC(=O)c3cccs3)ccc2OC[C@@H]2O[C@H](CC(=O)O)CC[C@@H]21	-3	-2	-1.3
C[C@@H]1CN([C@H](C)CO)S(=O)(=O)c2ccc(C#C[C@@H](C)O)cc2O[C@@H]1CN(C)C(=O)C1CCCCC1	2	8	-6.3
C[C@H]1CN([C@@H](C)CO)C(=O)CCCn2nncc2CO[C@@H]1CN(C)S(=O)(=O)c1ccc2c(c1)OCCCO2	4	7	-2.6
O=C(Nc1ccc(F)cc1)N1CC(=O)N2[C@H](CO)[C@H](c3ccc(C#Cc4cccnc4)cc3)[C@@H]2C1	?	.	.
COCCNC(=O)C[C@H]1CC[C@H]2[C@H](COc3ccc(NC(=O)Nc4cccc(F)c4)cc3C(=O)N2C)O1	-4	-1	-3.7
COc1cccc(NC(=O)N2CC3(C2)[C@H](c2ccccc2)[C@H](CO)N3C(=O)C2CC2)c1	2	1	1.0
C[C@@H]1CC=CC[C@@H](c2ccc3c(c2)OCO3)NC(=O)[C@H](C)N(C)C(=O)c2ccccc2O1 (mixture of isomers)	1	4	-3.3
CC(=O)N(C)C[C@@H]1[C@@H](c2ccccc2)[C@H](CO)N1C(=O)C1CCC1	0	1	-1.3
C[C@@H]1CN([C@@H](C)CO)C(=O)c2cc(NS(=O)(=O)c3ccc(Cl)cc3)ccc2O[C@@H](C)CCCCO[C@@H]1CN(C)C(=O)Nc1ccc(C(F)(F)F)cc1	0	0	0.3
COc1ccc2c3c([nH]c2c1)[C@@H](CO)NCC31CN(S(=O)(=O)c2cccs2)C1	18	13	4.2
O=C(C[C@H]1CC[C@H]2[C@@H](COC[C@H](O)CN2C(=O)Nc2cccc(F)c2)O1)NCCCN1CCOCC1	5	1	4.0
COc1ccccc1-c1ccc2c(c1)[C@H]1[C@H](CCN1S(=O)(=O)c1cccc(C)c1)[C@@H](CO)N2	?	.	.
CCC(=O)N1CC[C@@H]2[C@H]1c1cc(-c3cccc(F)c3)ccc1N(C)[C@@H]2CO	1	2	-0.9
O=C(c1ccccc1F)N1CC[C@@H]2[C@@H](CO)Nc3ccc(-c4ccc(F)cc4)cc3[C@@H]21	3	8	-4.8
CCCNC(=O)N1[C@H](CO)[C@@H](c2ccccc2)[C@H]1CNC(=O)c1ccccc1	-2	-5	2.5
COc1cccc(CNC(=O)C[C@@H]2CC[C@H]3[C@@H](COc4ccc(NS(=O)(=O)c5ccccc5F)cc4C(=O)N3C)O2)c1	-3	-2	-0.5
COCC#Cc1cnc2c(c1)C(=O)N([C@H](C)CO)C[C@H](C)[C@@H](CN(C)C(=O)c1cnccn1)O2	-3	-2	-1.4
COc1ccccc1NC(=O)N1CCCCN2[C@H](C1)[C@@H](c1ccc(-c3ccc(C)cc3)cc1)[C@@H]2CO	?	.	.
N#C[C@H]1[C@H](c2ccc(C3=CCCC3)cc2)[C@@H](CO)N1C(=O)C1CCOCC1	7	6	1.3
O=C(C[C@@H]1CC[C@H]2NC[C@H](O)COC[C@@H]2O1)NCCN1CCCCC1	4	0	3.3
C[C@H]1CN([C@@H](C)CO)C(=O)CCCn2nncc2CO[C@H]1CN(C)Cc1cccc(C(F)(F)F)c1	?	.	.
CCNC(=O)[C@@H]1[C@@H](CO)[C@@H]2Cn3c(ccc(-c4ccccc4F)c3=O)[C@H]1N2S(C)(=O)=O	-2	0	-1.6
C/C=C/c1ccc([C@@H]2[C@@H](CO)N(C(=O)c3ccccc3)C23CN(C(C)=O)C3)cc1	10	2	8.2
Cc1ccc(-c2cnc3c(c2)C(=O)N([C@H](C)CO)C[C@@H](C)[C@H](CN(C)Cc2ccccc2C(=O)O)O3)cc1	-4	-4	-0.4
